# Screening data deposited in PubChem BioAssay by Broad Institute.
# HIV Env fusion: inhibitors of HIV-1 Env-driven cell-cell fusion, primary screen, HeLa-JRFL effector, CEM21 target cells, luciferase; inhibition, % at 12.3 µM; 360,000 compounds, 1.1% hits;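 active means mean replicate inhibition score of at least 50 and every replicate individually at or above 50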;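 further: 0% = plate neutral controls and 100% = maraviroc near 300 nM; one replicate is shown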
# Yeast UUG start: modulators of yeast start codon fidelity, primary screen, whole organism, S. cerevisiae, single point, plate reader; S. cerevisiae UUG-firefly luciferase reporter, luminescence/redox ratio; activity score, % at 18.7 µM; 350,000 compounds, 0.13% hits;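 active means replicate mean at a twofold rise or more, about +100% in these data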;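 further: firefly luciferase made from a UUG start codon reports start codon fidelity; reporter light over untreated wells divided by growth signal over untreated wells; some hits fall short of that in this replicate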
# An asterisk follows results filed as active; [ ] = remark or other dose. This is a subset; count on the stated rates, not on these rows.
SMILES,HIV Env fusion,Yeast UUG start
COCC#Cc1cnc2c(c1)C(=O)N([C@H](C)CO)C[C@@H](C)[C@H](CN(C)C(=O)Nc1ccc(OC)cc1)O2,-13.7[16.7 µM],2.7
N#C[C@@H]1[C@@H](c2ccc(C#CCC3CCCC3)cc2)[C@H](CO)N1C(=O)CN1CCOCC1,3.9[16.7 µM],1.4
Cc1ccc(S(=O)(=O)N(C)C[C@@H]2OCCCC[C@H](C)Oc3ccc(NC(=O)Nc4ccccc4)cc3C(=O)N([C@H](C)CO)C[C@@H]2C)cc1,13.6[16.7 µM],-16.7
COc1ccc(-c2ccc3c(c2)O[C@@H](CN(C)Cc2ccccc2C(=O)O)[C@@H](C)CN([C@@H](C)CO)S3(=O)=O)cc1,6.5[16.7 µM],-5.5
CO[C@@H]1CN(C)C(=O)c2ccc(NC(=O)NC(C)C)cc2OC[C@@H](C)N(CC2CC2)C[C@H]1C,8.1[16.7 µM],-5.2
COc1ccc(NC(=O)Nc2ccc3c(c2)C(=O)N([C@H](C)CO)C[C@H](C)[C@@H](CN(C)S(C)(=O)=O)OCCCC[C@@H](C)O3)cc1,-10.6[16.7 µM],35.1
CNC[C@H]1Oc2ccc(NS(=O)(=O)c3c(C)noc3C)cc2C(=O)N([C@H](C)CO)C[C@H]1C,-0.1[16.7 µM],4.7
O=C(C[C@@H]1CC[C@@H](NC(=O)Nc2cc(F)ccc2F)[C@H](CO)O1)NCCCN1CCOCC1,-0.4[16.7 µM],-13.3
C[C@@H]1CN([C@@H](C)CO)C(=O)Cc2cc(NC(=O)Nc3ccc(C(F)(F)F)cc3)ccc2O[C@@H]1CN(C)Cc1ccc(C(=O)Nc2ccccc2N)cc1,-32.9[16.7 µM],-11.3
C[C@H]1CN([C@@H](C)CO)C(=O)c2cc(NS(=O)(=O)c3ccc(F)cc3)ccc2O[C@H]1CN(C)CC1CCCCC1,-5.5[16.7 µM],35.0
COC(=O)C[C@H]1C[C@H]2c3cc(NS(=O)(=O)c4ccc(OC)cc4)ccc3O[C@H]2[C@@H](CO)O1,-5.0[16.7 µM],-5.5
C[C@@H]1CN([C@@H](C)CO)C(=O)c2cccc(NC(=O)NC3CCCCC3)c2O[C@H]1CN(C)C(=O)Nc1ccc2c(c1)OCO2,13.0[16.7 µM],5.2
C[C@@H]1CCCCO[C@@H](CN(C)Cc2ccc(Cl)c(Cl)c2)[C@@H](C)CN([C@H](C)CO)C(=O)c2cc(NC(=O)CCCN(C)C)ccc2O1,6.0[16.7 µM],-2.9
COc1ccc(NC(=O)Nc2ccc3c(c2)C(=O)N([C@@H](C)CO)C[C@@H](C)[C@@H](CN(C)Cc2ccc4c(c2)OCO4)OCCCC[C@H](C)O3)cc1,-106.9[16.7 µM],22.8
C[C@H](CO)N1C[C@H](C)[C@H](CN(C)C(=O)Nc2cccc3ccccc23)OCCCC[C@H](C)Oc2ccc(NS(=O)(=O)c3cn(C)cn3)cc2C1=O,-20.3[16.7 µM],-0.8
COc1ccc(NC(=O)Nc2ccc3c(c2)CC(=O)N([C@H](C)CO)C[C@@H](C)[C@H](CN(C)Cc2ccc(Cl)c(Cl)c2)O3)cc1,16.6[16.7 µM],2.6
CCC(=O)N(C)C[C@@H]1Oc2ncc(C#Cc3ccncc3)cc2C(=O)N([C@H](C)CO)C[C@H]1C,14.9[16.7 µM],-11.3
COc1ccc(CN(C)C[C@H]2Oc3c(NS(=O)(=O)c4ccc(OC)cc4)cccc3C(=O)N([C@@H](C)CO)C[C@@H]2C)cc1,-10.4[16.7 µM],7.2
COCC#Cc1ccc2c(c1)O[C@@H](CN(C)S(=O)(=O)c1cccc(F)c1)[C@H](C)CN([C@@H](C)CO)S2(=O)=O,18.6[16.7 µM],-6.1
C[C@@H]1CN([C@H](C)CO)C(=O)c2cccc(NS(=O)(=O)c3ccc(F)cc3)c2O[C@@H]1CN(C)C(=O)Nc1ccccc1,3.9[16.7 µM],4.3
C[C@@H]1CN([C@@H](C)CO)C(=O)Cc2cc(NC(=O)Cc3cn(C)c4ccccc34)ccc2O[C@H]1CN(C)S(=O)(=O)c1ccccc1,-7.6[16.7 µM],-15.8
COc1ccc(NC(=O)N(C)C[C@H]2OCCCC[C@@H](C)Oc3ccc(NC(=O)NC(C)C)cc3C(=O)N([C@H](C)CO)C[C@H]2C)cc1,20.8[16.7 µM],4.3
COCC(=O)N[C@H]1CC[C@H](CC(=O)NCc2ccc(Cl)cc2)O[C@H]1CO,-3.6[16.7 µM],-8.8
CS(=O)(=O)Nc1ccc2c(c1)[C@@H]1C[C@@H](CC(=O)NCCN3CCCCC3)O[C@H](CO)[C@@H]1O2,-8.0[16.7 µM],-26.0
CC(C)NC(=O)N(C)C[C@@H]1Oc2ncc(C#CCN(C)C)cc2C(=O)N([C@H](C)CO)C[C@@H]1C,-1.8[16.7 µM],39.5
# Next part.
SMILES,HIV Env fusion,Yeast UUG start
CNC(=O)C[C@@H]1CC[C@H]2[C@H](COc3ccc(NC(=O)Nc4ccc(C)cc4)cc3C(=O)N2C)O1,12.7[16.7 µM],13.9
CN(C)C(=O)C[C@H]1CC[C@@H](NC(=O)C2CC2)[C@H](CO)O1,-7.6[16.7 µM],-22.5
C[C@@H]1CCCCO[C@@H](CN(C)Cc2ccc3c(c2)OCO3)[C@H](C)CN([C@H](C)CO)C(=O)c2cc(NC(=O)c3ccccc3)ccc2O1,-8.9[16.7 µM],10.9
O=C(NCC[C@@H]1CC[C@H](NC(=O)C2CCCC2)[C@@H](CO)O1)c1cnccn1,1.7[16.7 µM],5.9
COc1cccc(S(=O)(=O)Nc2ccc3c(c2)[C@@H]2C[C@H](CC(=O)NCc4cccc(F)c4)O[C@H](CO)[C@@H]2O3)c1,-8.4[16.7 µM],6.6
COCC#Cc1ccc2c(c1)O[C@@H](CN(C)CC1CCCC1)[C@H](C)CN([C@H](C)CO)S2(=O)=O,-9.1[16.7 µM],-5.7
C[C@H](CO)N1C[C@H](C)[C@@H](CN(C)CC2CCCCC2)Oc2ccc(NC(=O)CCN3CCOCC3)cc2CC1=O,-32.3[16.7 µM],7.0
CC(C)NC(=O)N(C)C[C@@H]1Oc2c(NC(=O)c3nc4ccccc4s3)cccc2C(=O)N([C@H](C)CO)C[C@@H]1C,-7.8[16.7 µM],-18.6
O=C(C[C@H]1C[C@@H]2c3cc(NS(=O)(=O)c4ccc(F)cc4)ccc3O[C@@H]2[C@@H](CO)O1)NCc1ccccc1F,15.6[16.7 µM],13.0
C[C@H]1CN([C@@H](C)CO)C(=O)Cc2cc(N(C)C)ccc2O[C@@H]1CN(C)CC1CC1,7.1[16.7 µM],-2.9
CCC(=O)N[C@@H]1CC[C@@H](CCn2cc(CN(C)C)nn2)O[C@@H]1CO,8.1[16.7 µM],-3.5
O=C(C[C@H]1C=C[C@H](NC(=O)Cc2ccccn2)[C@@H](CO)O1)NCCc1ccncc1,3.6[16.7 µM],0.5
C[C@@H]1CN([C@H](C)CO)C(=O)c2cc(C#Cc3ccccc3)cnc2O[C@@H]1CN(C)C(=O)c1ccccc1F,-1.5[16.7 µM],18.8
COCC#Cc1cnc2c(c1)C(=O)N([C@@H](C)CO)C[C@@H](C)[C@H](CN(C)C(=O)Nc1c(C)noc1C)O2,-10.8[16.7 µM],4.6
COc1ccc(CNC(=O)C[C@@H]2C=C[C@@H](NC(=O)c3cccc(F)c3)[C@H](CO)O2)cc1,11.7[16.7 µM],-8.9
C[C@H](CO)N1C[C@H](C)[C@H](CN(C)C(=O)Cc2ccccc2)OCCCC[C@H](C)Oc2ccc(NS(C)(=O)=O)cc2C1=O,-38.2[16.7 µM],6.4
C[C@H](CO)N1C[C@H](C)[C@@H](CN(C)C(=O)NC2CCCCC2)Oc2cc(-c3cccnc3)ccc2S1(=O)=O,-18.3[16.7 µM],6.1
O=C(C[C@@H]1CC[C@H](NC(=O)CN2CCOCC2)[C@@H](CO)O1)NCCc1ccncc1,-5.2[16.7 µM],-5.2
CNC[C@@H]1Oc2ccc(NC(=O)CCC(F)(F)F)cc2C(=O)N([C@@H](C)CO)C[C@@H]1C,3.8[16.7 µM],9.3
O=C(C[C@@H]1CC[C@@H](NC(=O)c2ccccc2)[C@@H](CO)O1)NCCc1ccncc1,-14.2[16.7 µM],1.2
CO[C@H]1CN(C)C(=O)c2ccc(NS(C)(=O)=O)cc2OC[C@@H](C)N(C(=O)CN(C)C)C[C@H]1C,14.6[16.7 µM],-4.9
COc1ccc(S(=O)(=O)N(C)C[C@@H]2OCCCC[C@H](C)Oc3ccc(NC(=O)NC(C)C)cc3C(=O)N([C@@H](C)CO)C[C@@H]2C)cc1,8.3[16.7 µM],-6.8
C[C@@H]1CCCCO[C@H](CN(C)C(=O)Nc2ccc(F)cc2)[C@H](C)CN([C@@H](C)CO)C(=O)c2cc(NS(=O)(=O)c3ccc(F)cc3)ccc2O1,-39.4[16.7 µM],-6.8
O=C(C[C@@H]1C=C[C@H](NC(=O)C2CCC2)[C@H](CO)O1)Nc1nccs1,6.3[16.7 µM],-5.1
N#C[C@@H]1[C@@H](c2ccc(C#Cc3ccccc3F)cc2)[C@H](CO)N1C(=O)C1CCOCC1,-5.6[16.7 µM],-15.2
# New compounds follow.
SMILES,HIV Env fusion,Yeast UUG start
COc1ccc(CN(C)C[C@H]2OCCCC[C@H](C)Oc3ccc(NS(=O)(=O)c4ccc(Cl)cc4)cc3C(=O)N([C@H](C)CO)C[C@@H]2C)cc1,-0.6[16.7 µM],13.6
C[C@@H]1CN([C@H](C)CO)C(=O)c2cc(NS(=O)(=O)c3cn(C)cn3)ccc2O[C@@H](C)CCCCO[C@@H]1CN(C)C(=O)Cc1ccccc1,-14.3[16.7 µM],6.2
COc1ccc(S(=O)(=O)Nc2ccc3c(c2)CC(=O)N([C@H](C)CO)C[C@@H](C)[C@@H](CN(C)C(=O)Nc2ccc(F)cc2)O3)cc1,-19.3[16.7 µM],-3.8
C[C@H](CO)N1C[C@H](C)[C@H](CN(C)C(=O)Nc2ccc3c(c2)OCO3)Oc2ccc(NC(=O)CCC(F)(F)F)cc2C1=O,-7.9[16.7 µM],9.6
O=C(C[C@H]1C=C[C@H](NS(=O)(=O)c2ccc(F)cc2)[C@H](CO)O1)NCCc1ccncc1,15.1[16.7 µM],-20.1
C/C=C/c1ccc2c(c1)O[C@H](CN(C)CC1CCOCC1)[C@H](C)CN([C@H](C)CO)S2(=O)=O,4.7[16.7 µM],-0.6
O=C(C[C@H]1C[C@H]2c3cc(NS(=O)(=O)c4ccc(F)cc4)ccc3O[C@H]2[C@@H](CO)O1)NCC(F)(F)F,24.2[16.7 µM],0.8
COc1ccc(NC(=O)N(C)C[C@H]2Oc3c(NS(=O)(=O)c4c(C)noc4C)cccc3C(=O)N([C@@H](C)CO)C[C@H]2C)cc1,-24.3[16.7 µM],-3.7
Cc1noc(C)c1NC(=O)Nc1ccc2c(c1)CC(=O)N([C@H](C)CO)C[C@H](C)[C@@H](CN(C)Cc1ccc(C(=O)O)cc1)O2,8.5[16.7 µM],1.2
C[C@H]1CCCCO[C@@H](CN(C)C(=O)NC2CCCCC2)[C@@H](C)CN([C@@H](C)CO)C(=O)c2cc(NS(=O)(=O)c3ccc(F)cc3)ccc2O1,-183.9[16.7 µM],4.4
C[C@@H]1CCCCO[C@@H](CN(C)C(=O)Nc2cccc3ccccc23)[C@@H](C)CN([C@@H](C)CO)C(=O)c2cc(NC(=O)NC3CCCCC3)ccc2O1,-77.4[16.7 µM],35.1
COc1ccc(NC(=O)N(C)C[C@H]2Oc3c(NC(=O)Nc4ccccc4)cccc3C(=O)N([C@@H](C)CO)C[C@H]2C)cc1,-35.8[16.7 µM],3.0
C/C=C/c1ccc2c(c1)O[C@@H](CN(C)C)[C@H](C)CN([C@@H](C)CO)S2(=O)=O,8.9[16.7 µM],9.8
C[C@@H]1CN([C@H](C)CO)C(=O)Cc2cc(NC(=O)CCCCCC(=O)Nc3ccccc3N)ccc2O[C@@H]1CN(C)Cc1ccc(Cl)c(Cl)c1,13.8[16.7 µM],8.2
CCNC(=O)C[C@@H]1CC[C@H]2[C@H](COc3ccc(NC(=O)Nc4cccc(C)c4)cc3C(=O)N2C)O1,19.4[16.7 µM],5.6
Cc1ccc(S(=O)(=O)N(C)C[C@@H]2Oc3cc(C#Cc4ccccc4)ccc3S(=O)(=O)N([C@@H](C)CO)C[C@@H]2C)cc1,27.4[16.7 µM],-1.5
C[C@@H]1CN([C@H](C)CO)C(=O)c2cc(NC(=O)C3CCCCC3)ccc2O[C@@H]1CN(C)CC1CC1,-0.5[16.7 µM],-3.9
C[C@@H]1CCCCO[C@@H](CN(C)S(=O)(=O)c2ccc(F)cc2)[C@H](C)CN([C@H](C)CO)C(=O)c2cc(NS(=O)(=O)c3ccccc3)ccc2O1,-21.2[16.7 µM],-10.7
COc1ccc(CN(C)C[C@@H]2OCCCC[C@H](C)Oc3ccc(NC(=O)Nc4ccc(OC)cc4)cc3C(=O)N([C@H](C)CO)C[C@H]2C)cc1,-8.1[16.7 µM],10.6
CN1C(=O)c2cc(NC(=O)C3CCCC3)ccc2OC[C@@H]2O[C@H](CC(=O)NCC3CC3)CC[C@@H]21,4.6[16.7 µM],15.0

# Reprinted at random: three entries already listed
SMILES,HIV Env fusion,Yeast UUG start
C[C@H]1CCCCO[C@@H](CN(C)C(=O)NC2CCCCC2)[C@@H](C)CN([C@@H](C)CO)C(=O)c2cc(NS(=O)(=O)c3ccc(F)cc3)ccc2O1,-183.9[16.7 µM],4.4
C[C@@H]1CN([C@H](C)CO)C(=O)c2cc(NC(=O)C3CCCCC3)ccc2O[C@@H]1CN(C)CC1CC1,-0.5[16.7 µM],-3.9
COc1ccc(NC(=O)N(C)C[C@H]2Oc3c(NC(=O)Nc4ccccc4)cccc3C(=O)N([C@@H](C)CO)C[C@H]2C)cc1,-35.8[16.7 µM],3.0
